LANA-H2B inh = blocks KSHV LANA binding to histone H2A/H2B; Q9QR71; 0.6% of 320,000 active; cell-free LANA-H2A/H2B peptide, fluorescence polarization; inhibition, % (test concentration not listed); AID 2629; in the data active = inhibition mostly above about 10%, no sharp cut-off; inactive = mostly below about 6.7%;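 also: stock transfer was 7.5 nL into about 10 µL; 0% = median of vehicle wells and 100% = median of positive control wells; one replicate is shown; the record names a cut of 25% in any replicate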
Vif TR-FRET = inhibitors of Vif binding to APOBEC3G peptide, primary screen, biochemical, TR-FRET, GST-Vif 1-94, biotin-A3G peptide, dose response retest (AID 1117319). TR-FRET GST-Vif / biotin-A3G peptide binding; higher % means a stronger effect; test concentration not given here; strong numbers were not always called active. inhibition, %; hits with a dose series show IC50 in µM. 0.57% of 260,000 active;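 active = above the screen mean plus three standard deviations and confirmed in dose response; inconclusive = results disagree or hit not tested in dose response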;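 also: Vif residues 1-94 fused to GST binding biotinylated APOBEC3G peptide 110-148; 0% = full assay without inhibitor and 100% = GST in place of GST-Vif; retest series ran down from 100 µM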
HNF4A DNA FP = change in binding of human HNF4 alpha to DNA; P41235; HNF4a-FITC DNA binding, fluorescence polarization, 1 h; activity change, % at 10 µM; 0.3% of 360,000 active; AID 1224865; in the data active = activity change above about 30%, passing the limit was not always enough;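 also: controls were the assay level and a saturating level of protein; the project sought stronger binding though the title names inhibitors; some compounds called inactive have numbers as strong as hits; positive values seem to mean higher polarization but the record does not say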
Target sequence (P41235 whole entry, looked up): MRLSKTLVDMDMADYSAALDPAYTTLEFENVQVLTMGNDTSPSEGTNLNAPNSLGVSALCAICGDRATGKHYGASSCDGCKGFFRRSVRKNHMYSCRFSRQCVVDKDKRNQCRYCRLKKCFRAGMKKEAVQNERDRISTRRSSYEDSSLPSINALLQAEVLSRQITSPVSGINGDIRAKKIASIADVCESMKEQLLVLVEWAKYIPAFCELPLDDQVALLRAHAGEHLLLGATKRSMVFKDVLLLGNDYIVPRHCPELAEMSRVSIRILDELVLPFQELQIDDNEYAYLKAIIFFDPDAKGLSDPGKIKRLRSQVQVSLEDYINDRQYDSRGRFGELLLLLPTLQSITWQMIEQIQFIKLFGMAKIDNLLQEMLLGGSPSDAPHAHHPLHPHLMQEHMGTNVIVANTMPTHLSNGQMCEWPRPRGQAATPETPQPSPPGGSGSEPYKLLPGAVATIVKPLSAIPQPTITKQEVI
Calb FLC = affects C. albicans growth with fluconazole; C. albicans CaCi-2 (fluconazole-resistant clinical isolate) + fluconazole, Alamar Blue growth, 48 h; growth inhibition, % (test concentration not listed); 0.57% of 300,000 active;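 active = most replicates above 75%; inconclusive = exactly half above 75%; inactive = most below 75%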;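 also: all wells also contain fluconazole at 8 µg/ml as a sub-toxic cotreatment; 0% = median of DMSO wells and 100% = median of geldanamycin control wells; wells of about 8 µL received 7.5 nL stock; the first replicate is given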
Beta2AR agonist = agonists of human beta-2 adrenergic receptor inducing internalization; P07550; Am2.2-beta2AR cells, FAP receptor internalization, flow cytometry; reference of the scale not given here; response, % (test concentration not listed); 0.43% of 340,000 active; AID 504454;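 active = response above a set limit, near 3 SD of response in nonfluorescent compounds, cut at about 42% in these data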;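 also: stock transfer was 100 nL into about 11 µL; a reference agonist was the positive control; negative values mostly stem from fluorescent compounds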
Target sequence (P07550 whole entry, looked up): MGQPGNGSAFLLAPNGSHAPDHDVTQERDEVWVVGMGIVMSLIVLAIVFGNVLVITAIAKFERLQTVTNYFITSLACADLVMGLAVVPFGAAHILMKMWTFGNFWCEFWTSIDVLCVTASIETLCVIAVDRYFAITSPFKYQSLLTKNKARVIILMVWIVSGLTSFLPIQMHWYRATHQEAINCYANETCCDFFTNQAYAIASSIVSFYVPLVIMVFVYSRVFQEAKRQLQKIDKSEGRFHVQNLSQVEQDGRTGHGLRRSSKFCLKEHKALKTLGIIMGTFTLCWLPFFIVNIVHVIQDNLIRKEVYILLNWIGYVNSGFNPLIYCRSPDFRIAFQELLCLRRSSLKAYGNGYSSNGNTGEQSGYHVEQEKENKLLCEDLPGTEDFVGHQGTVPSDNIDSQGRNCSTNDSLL
ALR inh = human ALR oxidase inhibition via reduced H2O2. purified ALR, DTT oxidation, H2O2 HRP-luminol luminescence. inhibition, % (no concentration beside the values). P55789. 3.8% of 290,000 active;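 active = mean and each replicate at 75% or more; inconclusive = only one of the two met; inactive = neither met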;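 also: stock transfer was 7.5 nL into about 7.5 µL; 0% = neutral wells and 100% = wells with inactivated enzyme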
Target sequence (P55789 whole entry, looked up): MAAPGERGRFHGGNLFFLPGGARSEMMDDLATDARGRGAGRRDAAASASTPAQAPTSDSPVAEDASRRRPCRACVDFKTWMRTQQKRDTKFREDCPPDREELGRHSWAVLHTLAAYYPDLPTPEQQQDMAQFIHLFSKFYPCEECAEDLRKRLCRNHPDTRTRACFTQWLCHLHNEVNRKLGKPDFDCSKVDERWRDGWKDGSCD
RanGTP-Imp inh = disruptors of Ran-importin-beta complex formation – biochemical, FRET, CFP-Ran, YFP-importin-beta, homogeneous, primary screen; inhibition, % (concentration not given with the values); cell-free CFP-Ran/YFP-importin-beta FRET ratio; 1.1% of 300,000 active;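 active = most replicates above 15%; inconclusive = exactly half above 15%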;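 also: 0% = DMSO wells and 100% = Ran loaded with GDP instead of GTP; wells of about 40 µL received 100 nL stock; the first replicate is given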
An asterisk follows results filed as active; ? = inconclusive; . = no result given. This is a subset. The share of hits here may be higher or lower than overall.

SMILES | LANA-H2B inh | Vif TR-FRET | HNF4A DNA FP | Calb FLC | Beta2AR agonist | ALR inh | RanGTP-Imp inh
O=[N+]([O-])/C(Cl)=C1\NCCN1Cc1ccc(Cl)nc1 | 2.2 | . | -1.2 | -6 | 2 | -2 | -4.5
CN1CCC(OC(=O)c2cccc(F)c2)CC1 | -2.1 | -6% | -0.7 | 4 | -4 | -8 | 1.0
O=c1[nH]c(=O)n(-c2ccccc2)c(O)c1C=NC12CN3CN(CN(C3)C1)C2 | 3.1 | 2% | . | 3 | . | 0 | 1.6
CCn1c(C)c(C(=O)Nc2ccc(OC)cc2)c2cc(OC)ccc21 | 2.3 | -7% | 0.5 | -5 | -3 | -4 | 2.1
COP(=O)(OC)C1(Nc2ccc(C)cc2)CCCCC1 | 0.0 | -9% | 0.7 | -3 | 11 | 99* | -3.4
COc1cccc(N2C(=O)/C(=C/c3ccc(C)o3)C(=O)NC2=S)c1 | -4.5 | . | 11 | 4 | 35 | 5 | 2.0
Cc1cc(/C=C2\C(=O)NC(=O)N(c3ccc(Cl)cc3)C2=O)c(C)n1-c1cccc(C(=O)O)c1 | -4.3 | 19% | -11 | 4 | -7 | 44 | 7.4
O=C1NC(=O)N(c2ccccc2)C(=O)/C1=C/c1ccc2c(c1)Cc1ccccc1-2 | 0.0 | 21% | . | 8 | . | -128 | -1.1
CN1C(=O)C(=Cc2coc3ccccc3c2=O)C(=O)N(C)C1=O | -5.1 | 6% | 0.2 | 0 | 10 | . | -1.6
COC(=O)C1=C(c2cccc(C#N)c2)C[C@@H]2CC[C@H]1N2C(=O)NCCNC(C)=O | -1.4 | . | 0.0 | . | 4 | -8 | .
C=CCN1C(=O)CSc2ccc(C(=O)N3CCC4(CC3)OCCO4)cc21 | 2.9 | 3% | -3.6 | -7 | 8 | -3 | 4.5
C=CCN1C(=O)NC(=O)/C(=C/c2ccc(OC)c(CSc3ccccn3)c2)C1=O | -1.3 | 6% | 0.6 | 8 | -7 | 4 | 3.2
COc1ccc(CCC(C)NCCc2ccccc2)cc1 (configuration not stated) | 1.8 | 10% | -2.4 | -33 | -4 | -31 | -2.6
O=c1c2ccccc2nc(/C=C/c2ccc(O)cc2)n1-c1ccccc1O | -3.5 | -5% | 3.0 | 13 | -9 | . | -2.9
O=C1C2CCN(CC2)C1Cc1ccc(OCCOc2ccccc2)cc1 (configuration not stated) | -0.5 | 0% | -2.0 | 109* | -13 | -5 | 0.8

Sorted by number of heavy atoms (rising): some entries from above.
SMILES | LANA-H2B inh | Vif TR-FRET | HNF4A DNA FP | Calb FLC | Beta2AR agonist | ALR inh | RanGTP-Imp inh
COc1ccc(CCC(C)NCCc2ccccc2)cc1 (configuration not stated) | 1.8 | 10% | -2.4 | -33 | -4 | -31 | -2.6
C=CCN1C(=O)CSc2ccc(C(=O)N3CCC4(CC3)OCCO4)cc21 | 2.9 | 3% | -3.6 | -7 | 8 | -3 | 4.5
O=c1[nH]c(=O)n(-c2ccccc2)c(O)c1C=NC12CN3CN(CN(C3)C1)C2 | 3.1 | 2% | . | 3 | . | 0 | 1.6

Additional compounds.
SMILES | LANA-H2B inh | Vif TR-FRET | HNF4A DNA FP | Calb FLC | Beta2AR agonist | ALR inh | RanGTP-Imp inh
CN1CCC2(O)OCCCC2C1 (configuration not stated) | 4.7 | -3% | 1.9 | -9 | -3 | -10 | -0.3
Cc1ccc(Oc2cc(NN3CCCCC3)c([N+](=O)[O-])cc2[N+](=O)[O-])c([N+](=O)[O-])c1 | -0.6 | . | -5.7 | -5 | 10 | 30 | 0.0
COc1ccccc1OC(=O)c1ccc(C)c(S(=O)(=O)N2CCOCC2)c1 | -2.9 | . | -0.4 | 1 | 4 | 2 | -2.1
CCNc1nc(Cl)nc(NC(C)C)n1 | 1.8 | -10% | 2.6 | 11 | -8 | 1 | -0.6
CC(=O)O[C@@H]1/C=C/[C@](C)(O)C[C@@H](C)C/C=C/[C@H]2[C@@H]3O[C@]3(C)[C@@H](C)[C@H]3[C@H](Cc4ccccc4)NC(=O)[C@@]312 | 2.4 | . | 7.1 | 1 | . | . | -0.8
COC(=O)C1=C(c2ccc(-c3ccccc3)c(F)c2)C[C@@H]2CC[C@H]1N2C(=O)N1CCC(C)CC1 | -0.4 | . | 4.0 | . | 5 | 0 | .
CN(C)c1ccc([P+](=O)c2ccc(N(C)C)cc2)cc1 | -0.3 | 5% | -2.7 | 62* | 3 | 14 | 1.5
S=c1[nH]c2ccccc2[nH]1 | 0.2 | -4% | 3.2 | -21 | 1 | . | 0.6
COc1ccc(C(=O)Oc2cccc3cccnc23)cc1S(=O)(=O)N1CCOCC1 | 2.1 | 18% | -1.5 | 2 | 1 | -9 | 3.0
O=C(C1CC(=O)N(C2CCCC2)C1)N1CCC2(CC1)OCCO2 (configuration not stated) | 1.8 | -8% | 1.6 | 24 | 4 | -8 | ?
COc1ccc(CN2C(=O)NC(=O)/C(=C/c3ccc(OC)c(OC)c3OC)C2=O)cc1 | 2.1 | 2% | 6.3 | -3 | -1 | 22 | -1.2
O=C(NC1(C(F)(F)F)Oc2ccccc2O1)N1CCC2(CC1)OCCO2 | -1.5 | 22% | -10 | -3 | 3 | -26 | 1.9
CC(C)C(=O)c1cn(Cc2ccc(C#N)cc2)c2ccccc12 | -4.6 | -12% | 2.8 | -24 | -6 | -1 | -2.8
CCOc1ccc(C(C)=O)cc1Cn1ccsc1=N | 1.6 | -4% | 4.3 | -7 | -4 | -7 | -4.0
COc1ccc2c(c1)CC1(CN2C)C(=O)NC(=O)N(c2ccc(C)cc2)C1=O (configuration not stated) | -2.3 | 59µM* | 0.1 | -4 | 3 | 32 | 4.8
C/C(=N\NP(=S)(c1ccccc1)c1ccccc1)c1ccc(O)cc1O | 4.5 | ? | 2.3 | 8 | 8 | -7 | -3.3
Fc1ccc2c(c1)nnn2C1CCN(Cc2c(Cl)cccc2Cl)CC1 | -3.1 | 9% | 1.7 | -15 | 2 | -8 | 1.1
Cc1cc(O)c(CN2CC=C(c3ccccc3)CC2)cc1C(C)C | -0.8 | . | -0.2 | -5 | 7 | . | 5.5
Cc1cc(OCC(=O)N2CCC(C(=O)O)CC2)c2c3c(c(=O)oc2c1)CCCC3 | -2.6 | . | 4.9 | -5 | -1 | -9 | -3.9
Cc1cc(N(CCCl)CCCl)ccc1C=Cc1ccncn1 | . | -1% | 67* | . | -7 | . | .
O=C1NC(=O)C(=Cc2ccccc2[N+](=O)[O-])C(=O)N1 | . | 5% | -5.7 | . | 2 | . | .
O=C(Cc1ccc([N+](=O)[O-])cc1)N1CCN(Cc2ccc3c(c2)OCO3)CC1 | 3.6 | . | -0.5 | -2 | 14 | -4 | 3.1
CN1CC(Br)C(=O)NC1=O (configuration not stated) | . | -4% | -0.3 | . | -3 | . | .
CCOc1ccc(-n2c(-c3ccoc3)nc3ccccc3c2=O)cc1 | . | 2% | -1.9 | -13 | -16 | . | -3.1
O=C(c1ccccc1F)c1cn(Cc2ccc(F)cc2)c2ccccc12 | 0.8 | -8% | 4.8 | 1 | 4 | -3 | 5.7
Cc1cccc(N2C(=O)NC(=O)/C(=C/c3cc4c(cc3[N+](=O)[O-])OCO4)C2=O)c1 | -3.3 | 59µM* | -0.8 | 32 | 22 | 65 | -1.7
CC1CCC2C(C)C(=O)OC3OC4(C)CCC1C32OO4 (configuration not stated) | -3.1 | -2% | -0.7 | 64 | -2 | 3 | -1.3
COc1ccccc1N1C(=O)CC(=O)NC1=O | 3.8 | 1% | 0.9 | 2 | 4 | 2 | -2.7
N#Cc1c(/N=C/c2c(O)n(Cc3ccco3)c(=O)[nH]c2=O)sc2c1CCCC2 | -0.9 | ? | -3.0 | -15 | 8 | 82* | -5.5
CCOC(=O)c1ccccc1C(=O)OCC | -0.1 | . | -31 | 15 | -9 | -13 | 5.9
COCCNC(=O)N1[C@H]2CC[C@@H]1C(C(=O)OC)=C(c1cccc(C#N)c1)C2 | -6.9 | . | 1.9 | . | 0 | 1 | .
CCCC[N+]12CCC(CC1)C(C(=O)c1cccs1)C2 (configuration not stated) | 1.9 | 3% | -1.7 | -2 | -1 | -3 | ?
O=C1NC(=O)N(c2ccccc2)C(=O)/C1=C\C=C\c1ccccc1 | 2.1 | 42µM* | -3.0 | 2 | 35 | 22 | 0.2
N[C@@H](Cc1c[nH]c2ccccc12)c1nnc(SCc2ccccc2)o1 | 0.6 | -8% | -2.8 | 10 | 4 | . | 4.0
C=CCn1c(O)c(C=Nc2ccc(N(CC)CC)cc2)c(=O)[nH]c1=O | 8.2 | 29% | 7.8 | 41 | -3 | 22 | -15
O=C1/C(=C/c2cccnc2)N2CCC1CC2 | 0.4 | 1% | 4.2 | 0 | -6 | -8 | 4.6
COc1ccc(CN2CCCC(C(=O)c3sccc3C)C2)cc1O (configuration not stated) | -1.9 | 1% | 1.0 | 1 | -16 | 1 | 4.7
O=C(CNC(=O)c1ccccc1Cl)Nc1ccc(Br)cc1C(=O)c1ccccc1 | 1.3 | 31% | 1.4 | 6 | -15 | -1 | 2.3
[N-]=[N+]=CC(=O)OC[C@H](N)C(=O)O | 1.1 | ? | -0.4 | . | -3 | -1 | 3.7
C#C[C@]1(O)CCC2C3C(=O)C=C4C(Cl)=CCC[C@]4(C)C3CC[C@@]21C (some centres not stated) | . | -4% | -3.8 | . | 9 | . | .
CC1(C)Cc2c(C#N)c(N3CCNCC3)nc(-c3ccco3)c2CS1 | -1.1 | 2% | 5.1 | -28 | 7 | -4 | 2.1
COc1ccc([C@@H](O)[C@@H](N)c2ccccc2)cc1 | 1.9 | . | 2.2 | 1 | 2 | -12 | 0.0
CC(C)(C)c1ccc(C(=O)C2CCCN(C3CCC3)C2)cc1 (configuration not stated) | -5.0 | 13% | 2.7 | -21 | 4 | . | 7.0
O=C(/C=C/c1ccccc1)c1c(O)n(CCc2ccccc2)c(=O)[nH]c1=O | 3.5 | -1% | 3.6 | 4 | 9 | -12 | 4.3
CC(=O)N1CN(C(C)=O)CN(C(C)=O)C1 | -3.6 | 13% | 4.2 | -11 | 12 | -3 | 3.8
COc1ccccc1N1CCN(CCc2c[nH]c3cc4c(cc23)OCO4)CC1 | . | 1% | 0.1 | . | 2 | . | .
CCOc1cc(C)cc2oc(=O)c3c(c12)CCCC3 | 2.9 | -25% | -0.2 | -4 | 9 | -6 | -0.5
CNP1(NC)=Nc2nn(-c3ccccc3)c(N)c2C(c2ccccc2)=N1 | 1.3 | -7% | 0.6 | 5 | -7 | 33 | 0.6
CCN1C(=O)NC(=O)/C(=C\c2cn(CC(=O)O)c3ccccc23)C1=O | -3.8 | . | . | -2 | . | 6 | 0.8
CC(CN1CCOCC1)C(C#N)(c1ccccc1)c1ccccc1 (configuration not stated) | . | 1% | 2.5 | . | -5 | . | .
COc1ccc(C(=O)C2CN(C)CC2C(=O)c2ccc(OC)cc2)cc1 (configuration not stated) | -0.1 | 1% | 0.8 | -31 | -5 | -5 | -2.5
O=C(c1c[nH]c2ccc(S(=O)(=O)N3CCC4(CC3)OCCO4)cc2c1=O)N1CCC2(CC1)OCCO2 | -3.4 | 0% | 2.9 | 3 | -8 | -10 | 1.0
C=CCOC(=O)C1=C(C)OC(N)=C(C#N)C12C(=O)N(CN1CCOCC1)c1ccccc12 (configuration not stated) | 3.5 | 4% | -0.7 | 11 | -2 | -7 | -1.9
COc1ccc(-c2cc(=Nc3ccccc3)c3cc(C)ccc3o2)cc1 | 3.3 | . | 2.6 | ? | 1 | -3 | -3.2
CN1C(=O)NC(=O)/C(=C\C=C\c2ccccc2[N+](=O)[O-])C1=O | 2.3 | 14% | . | 5 | . | 11 | .
Cn1cccc1CN1CCN(C(=O)COc2ccccc2)CC1 | -0.4 | ? | -0.3 | 8 | -8 | -38 | 6.5
COC(=O)C1=C(c2ccc(OC)c(OC)c2)C[C@@H]2CC[C@H]1N2C(=O)NCc1ccc(F)cc1 | 4.0 | . | 3.7 | . | 3 | -4 | .

Source: PubChem
